# High-throughput results (PubChem BioAssay)
# Sfp PPTase inh = inhibitors of Bacillus subtilis Sfp phosphopantetheinyl transferase; Q9F4F7; Potency, µM, without a hit: max response, negative = inhibition, hits mostly inhibitors; Biochemical Sfp PPTase activity, qHTS; 3.5% of 310,000 active; active means well fitted inhibition curve with a large enough effect; inconclusive means small, poorly fitted or top-dose-only effect, or another doubt; inactive means no such curve, though single readings can be large or run the other way;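 further: the enzyme is Sfp with the accession as filed and its product quenches rhodamine fluorescence; potency means the concentration at half of the fitted maximal effect; 0% = enzyme reaction without inhibitor and -100% = no enzyme wells; top concentration of the series not given in the record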
#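 With Hepes-Na pH 7.6 buffer containing 10 mM MgCl2, Sfp (15 nM) modified BHQ-2-YbbR (12.5 uM) using rhodamine-CoA (5 uM). Two reads 30 minutes apart at 525/598 nm yielded each well's rate.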
# TRPML1 agonist = agonists of human TRPML1 channel | activation, % (concentration not given with the values) | AID 624414 | 0.12% of 410,000 active | TRPML1-expressing cells, Ca2+ dye fluorescence, FDSS; host cell line not named in the record; reference of the full effect not given here | Q9GZU1; in the data active = activation above about 50%; inconclusive = about 30% to 50%; inactive = below about 30%; further: 0% is about no effect; the text of the record puts the active cut at 80%
# Target sequence (Q9GZU1 whole entry, looked up): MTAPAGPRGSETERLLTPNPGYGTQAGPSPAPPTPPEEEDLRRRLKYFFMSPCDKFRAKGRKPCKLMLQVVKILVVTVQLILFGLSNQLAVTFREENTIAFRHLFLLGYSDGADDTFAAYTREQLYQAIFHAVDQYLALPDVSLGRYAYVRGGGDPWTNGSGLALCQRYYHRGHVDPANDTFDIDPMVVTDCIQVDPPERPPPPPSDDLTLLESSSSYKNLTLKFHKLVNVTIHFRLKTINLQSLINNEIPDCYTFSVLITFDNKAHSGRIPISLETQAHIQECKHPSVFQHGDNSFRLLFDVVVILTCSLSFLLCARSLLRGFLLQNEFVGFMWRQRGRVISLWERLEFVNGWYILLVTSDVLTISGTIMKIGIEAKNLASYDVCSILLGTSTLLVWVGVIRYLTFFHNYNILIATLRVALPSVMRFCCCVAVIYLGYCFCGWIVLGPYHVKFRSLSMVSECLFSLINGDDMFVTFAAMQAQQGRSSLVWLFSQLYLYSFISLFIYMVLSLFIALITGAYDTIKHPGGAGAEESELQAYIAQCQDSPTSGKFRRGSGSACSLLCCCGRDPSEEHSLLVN
#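 Tet-induced TRPML1-DL cells, 1,500 per well, cultured overnight, were loaded with a no-wash Ca2+ dye for 45–90 min. Calcium fluorescence was recorded on the FDSS for 110 s after compound addition, before the EC80 agonist (4 uM 54-4) was added.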
# TRPML1 blocker = human mucolipin-1 channel inhibition; 0.02% of 390,000 active; Q9GZU1; AID 624415; activity change, negative = inhibition, % (test concentration not listed); TRPML1-inducible cells, Ca2+ dye fluorescence, FDSS; stronger effect = lower value; inhibition of EC80 agonist-evoked calcium signal; in the data active means activity change below about -50%; inconclusive means about -30% to -50%; inactive means above about -30%;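 further: stimulus is agonist 54-4 at its EC80 concentration; on the % scale 0 is the no-effect control and ±100 the full control effect; compound concentration not given in the record; the text of the record puts the active cut at -80%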
#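 Tet-induced TRPML1-DL cells loaded with Ca8 no-wash calcium dye were read kinetically on FDSS. Compound addition was followed by EC80 agonist 54-4 (4 uM final); inhibition was read over 110 s.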
# ClpP mod = qHTS Assay for Activators of ClpP; ATP-dependent Clp protease proteolytic subunit (Bacillus subtilis (strain 168)), P80244; purified B. subtilis ClpP, FRET peptide cleavage, 20 min; 1.9% of 340,000 active; AID 651965, 2013; Potency, µM (top dose mostly 57.5 µM), for the others: at the top dose activity change, negative = active; active = well fitted falling curve with a large enough effect; inconclusive = small, poorly fitted or top-dose-only effect; inactive = no such curve, though single readings can be large or run the other way; further: potency means the concentration at half of the fitted maximal effect; the source files actives as falling curves though it sought activators and does not explain the sign; nearly all actives have a fitted effect of over 65% in size; many hits overshoot -100%
# Target sequence (P80244 whole entry, looked up): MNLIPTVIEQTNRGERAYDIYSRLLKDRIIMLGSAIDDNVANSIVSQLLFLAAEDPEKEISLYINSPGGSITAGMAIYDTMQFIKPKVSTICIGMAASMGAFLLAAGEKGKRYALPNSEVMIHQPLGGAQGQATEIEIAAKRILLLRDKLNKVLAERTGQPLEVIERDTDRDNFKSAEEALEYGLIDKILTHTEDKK
#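 Buffer: 100 mM Tris/HCl pH8, 100 mM KCl, 0.05% low protease BSA, 2.5% glycerol, 0.01% Tween-20. ClpP 10 microg/mL final; 20 min RT; delta FRET normalized to ADEP and DMSO controls.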
# PINK1 modulator = modulators of PINK1 expression; PINK1 immunofluorescence, high-content cytometry, 24 h; 0.2% of 410,000 active; Potency, µM (top dose mostly 76.6 µM), inactives show at the highest dose activation (PINK1 increase), hits mostly activators; active = well fitted activation curve with a large enough effect; inconclusive = small, poorly fitted or top-dose-only effect; inactive = flat fitted curve, though single readings scatter; cell line not stated here;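 further: potency means the concentration at half of the fitted maximal effect; % of control where 0% means no effect; nearly all actives have a fitted effect of over 65% in size; a mitochondrial uncoupler was the plate control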
#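 Cells are seeded, rested 12 hours, then given compound at five concentrations or DMSO for 24 hours. After fixation, blocking and antibody staining, PINK1 amount and mitochondrial localization are scored; CCCP serves as control.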
# TRPV1 potentiator = enhances activation of the human vanilloid receptor TRPV1; Q8NER1; TRPV1-expressing cells, Fluo-8 calcium influx, capsaicin EC20 potentiation; host cell line not named in the record; control for the full effect not named in the record; potentiation, % at 8.33 µM; 0.02% of 320,000 active; active means potentiation above 80%; inconclusive means 30% to 80%; inactive means below 30%; further: 0% is about no effect
#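 Cells expressing TRPV1 were dye-loaded with Fluo-8 and read kinetically: 10 s baseline, 3 min after compound (agonist portion), then 2 min after EC20 capsaicin (allosteric enhancer portion). Calcium-bound dye fluorescence at 480/520 nm.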
# Menin-MLL FL inh = displaces fluorescein MLL peptide from human menin | Fluorescence polarization, fluorescein-MLL peptide displacement from menin | FP activity change, % at 61.4 µM | 290,000 tested, under 10 active | AID 1766; inconclusive = falling polarisation curve, or a change in total fluorescence; inactive = total fluorescence flat and polarisation flat or rising; no compound was filed as active; the % refers to the polarisation; negative = inhibition;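 further: % of control where 0% means no effect; inhibitors lower the polarisation; unlabelled MLL peptide was the positive control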
# The depositor's hits bear a star; ? = inconclusive; . = not tested or not shown; & = joins results of further samples; [ ] = another dose, or the depositor's remark.
Molecule,Sfp PPTase inh,TRPML1 agonist,TRPML1 blocker,ClpP mod,PINK1 modulator,TRPV1 potentiator,Menin-MLL FL inh
CC1CCCCN1C(=O)c1cc(S(=O)(=O)N2CCCCC2)c[nH]1 (stereo not drawn),0.7%,-0.3,10.8,1.4%,1.0%,-2.9,-2.1
CC(NC(=O)c1cc2ccccc2o1)C(=O)O (stereo not drawn),5.0%,0.6,-15.6,-1.9%,-1.4%,.,-0.5
O=C(Nc1nc(-c2ccc(Cl)s2)cs1)c1ccccc1,12.7%,3.9,-7.9,?,4.8%,-8.3,0.9
COC(=O)CCC(=O)CN,-6.7%,0.3,3.1,0.4%,-0.1%,-7.2,-2.2
CCOc1ccc(N(CC(=O)NCc2ccco2)C(=O)CCC(=O)Nc2nccs2)cc1,2.0%,-0.2,41.9,.,-0.1%,17.6,0.0
CCCn1c(N)c(C(=O)CSc2nnc(C3CC3)n2Cc2ccccc2)c(=O)[nH]c1=O,-4.9%,-0.2,-10.2,-1.3%,-4.1%,0.0,-2.7
O=C(C=Cc1cccc(O)c1)c1ccccc1O,.,1.2,-14.2,.,-1.8%,.,.
COc1ccccc1OCc1nnc(SCC(=O)N2CCCCC2)o1,23.6%,-0.3,-20.8,.,-0.6%,15.7,2.3
CCN(CC)c1ccc(/C=N/NC(=O)CNC(=O)C2COc3ccccc3O2)c(O)c1 (stereo not drawn),16.5%,2.6,16.7,-1.0%,-0.1%,-2.7,-0.6
CCOC(=O)c1ccccc1NC(=O)Cn1c(=O)n(-c2ccc(CC)cc2)c(=O)c2c(C)c(C(=O)N(C)C)sc21,.,2.5,-24.3,-5.3%,0.2%,.,.
CC(C)Nc1ncnc2c1ncn2[C@H]1CN(Cc2cccnc2)C[C@@H](CO)O1,.,-0.6,.,-5.3%,3.1%,.,.
CC(C)NC(=O)c1cc(-n2cnnc2)ccc1Cl,26.5%,3.3,-15.4,0.2%,3.8%[38.3 µM],-2.4,1.6
CCc1nc2c(OCCn3cccc3)cccn2c1N(C)C(=O)c1cccs1,.,-0.4,.,-0.9%,1.0%,.,.
Cc1nc(SCc2ccccc2C#N)n[nH]1,0.3%,.,.,-1.1%,0.4%,5.1,1.3
CCOC(=O)N1CCN(C(=O)CN(c2ccc(OCc3ccccc3)cc2)S(C)(=O)=O)CC1,16.5%,1.3,13.4,-0.2%,2.6%[38.3 µM],1.4,1.3
Cc1ccc(-c2cn3cccnc3n2)cc1NC(=O)c1ccc(Br)o1,0.9%,-0.3,-5.4,62.5%,-3.7%[38.3 µM],-5.6,4.9
Cc1oc(-c2ccoc2)nc1CN(CC1CCC(=O)N1)C(C)C (stereo not drawn),5.4%,0.3,23.0,.,2.6%,-11.7,0.3
COc1ccc(C2c3c(n[nH]c3C)CC(C)(O)C2C(C)=O)cc1OC (stereo not drawn),17.5%,-0.1,12.3,-1.9%,7.9%[38.3 µM],2.8,1.3
CCc1ccccc1NS(=O)(=O)c1cc2c3c(c1)CCN3C(=O)CC2,.,0.8,-6.6,1.5%,-0.2%,2.2,.
CCOc1ccc(NC(=O)c2sc(N3CCOCC3)nc2-c2ccccc2)cc1,4.1%,1.3,4.6,-9.7%,13.0%,-5.3,-2.2
CC(=O)Nc1cccc(NC(=O)CSc2nccn2Cc2ccc3c(c2)OCO3)c1,.,0.3,-11.8,0.8%,20.7%,.,.
CC(C)Oc1cccc(OCCN2C(=O)c3ccccc3C2=O)c1,7.4%,1.2,-4.3,-16.1%,1.0%,-7.1,0.2
O=C(CSc1nnc(Cc2cc(=O)[nH]c(=O)[nH]2)n1-c1ccccc1)N1CCCCC1,11.8%,0.9,10.2,0.6%,3.3%,.,-5.6
COc1ccc(C(=O)N/C(=C\c2ccccc2)C(=O)N2CCOCC2)cc1,14.1%,0.6,22.4,-0.1%,-3.3%,4.3,.
CC1(C(=O)NS(=O)(=O)c2ccc(Br)cc2)CCN1C(=O)CCc1cccs1 (stereo not drawn),.,-0.3,.,0.5%,2.2%,.,.

# The list goes on:
Molecule,Sfp PPTase inh,TRPML1 agonist,TRPML1 blocker,ClpP mod,PINK1 modulator,TRPV1 potentiator,Menin-MLL FL inh
CC(OC(=O)c1ccccc1C(=O)O)c1ccccc1 (stereo not drawn),.,-0.3,26.3,-1.0%,1.7%,.,.
O=C(CCCOC(=O)c1ccc(O)cc1O)c1ccc(F)cc1,.,1.6,36.0,-7.6%,0.4%,26.9,.
Cc1ccc(NS(=O)(=O)c2ccc(C(=O)N3CCCCCC3)cc2)cc1,.,8.0,-7.3,-5.6%,0.7%,15.7,.
CCOC(=O)CC(NC(=O)c1cc2cc(Br)ccc2oc1=O)c1cccc([N+](=O)[O-])c1 (stereo not drawn),-12.9%,-0.3,-10.7,2.1%,-1.7%,6.0,0.9
O=C1CCCc2sccc2N1,16.3%,-0.2,-3.8,0.2%,-0.3%[38.3 µM],6.0,3.7
O=C(NCC(=O)N1CCCC(C(F)(F)F)C1)c1ccc(Oc2ccccc2)cc1 (stereo not drawn),13.0%,0.9,1.0,0.8%,1.3%,0.7,.
CCOC(=O)C1CCN(C(=O)COc2ccc(S(=O)(=O)NC(C)(C)C)cc2)CC1,5.1%,0.2,-2.3,-4.0%,0.1%,4.7,2.0
NC(=O)c1cc(S(=O)(=O)NCCCc2ccccc2)cs1,10.9%,3.7,-17.7,0.1%,0.0%,-8.5,28.2
Cn1c(=O)c(=O)n(C)c2cc(S(=O)(=O)N3CCN(c4ccc(F)cc4)CC3)ccc21,-10.0%,-0.5&1.0,-6.7&-4.1,-0.9%&-27.6%,?,-2.8,3.7
CN(CC(=O)N1CCN(c2cccc(Cl)c2)CC1)S(=O)(=O)c1cccs1,-7.1%,0.1,32.4,-1.8%,1.4%[38.3 µM],-11.8,6.8
CC[n+]1c(C)sc2c3ccsc3ccc21,1.41µM*,0.5,-5.5,-2.9%,-3.4%,-10.9,0.5
COc1ccc(C(=O)NC(=S)NCc2ccccc2)cc1OC,-14.0%,3.4,0.3,.,4.2%,6.1,1.1
CC(=O)c1sc2nc(-c3ccco3)ccc2c1N,22.4µM*,3.6,11.3,.,-2.4%,11.8,?
COc1ccc2c(C)c(CC(=O)N3C[C@H]4C[C@@H](C3)c3cccc(=O)n3C4)c(=O)oc2c1OC,27.8%,.,.,4.7%,2.1%,17.6,0.3
CCOc1ccc2oc(C(=O)N3CCCN(C)CC3)c(C)c2c1,.,0.8,2.1,-28.7%,1.6%,.,.
O=C(NCCN1CCOCC1)C1CC(=O)N(c2ccc(F)cc2)C1 (stereo not drawn),9.0%,0.1,10.8,.,-2.1%,0.2,-2.9
Cc1ccc(-n2c(SCC(=O)Nc3ccc4c(c3)OCCO4)nnc2-c2ccco2)cc1,-3.8%,1.8,17.6,-0.8%,1.3%,14.0,1.2
CC1CCN(C(=S)NC(=O)c2ccc(C(C)(C)C)cc2)CC1,1.1%,0.6,9.8,2.1%,4.8%,-10.6,-0.9
Cc1ccc(-c2cc(C(=O)NCc3ccco3)c3ccccc3n2)s1,2.82µM*,0.3,-13.3,31.6µM*,11.5%,28.4,4.7
O=C(c1ccco1)N1CCN(C(=O)c2cc3cc([N+](=O)[O-])ccc3oc2=O)CC1,11.5%,-0.2,-17.4,3.5%,2.5%,9.7,1.5
COc1ccc(-c2nc3ccccc3o2)cc1NC(=O)COc1ccc(C)cc1,.,-0.3,.,4.6%,-0.6%,.,.
O=C(Cc1cccc2ccccc12)NN=Cc1ccc2c(c1)CCC2,.,0.0,-0.1,0.6%,6.7%,.,.
Cc1ccccc1N1CCN(C2CCCN(C(=O)CCn3cnnn3)C2)CC1 (stereo not drawn),15.2%,0.7,-6.8,1.1%,-1.6%,-0.9,.
CCc1nnc(NC(=O)CSc2nnc(C3CCCCC3)n2-c2ccccc2)s1,5.1%,-0.2,4.5,0.9%,-0.6%,-3.1,0.9
COc1cc2c3c(c1OC)C1(C=CC(=NNC(N)=O)C=C1)CC3N(C(C)=O)CC2 (stereo not drawn),1.1%,0.5,3.7,-0.2%,-0.6%,0.4,6.3

# Later entries.
Molecule,Sfp PPTase inh,TRPML1 agonist,TRPML1 blocker,ClpP mod,PINK1 modulator,TRPV1 potentiator,Menin-MLL FL inh
Cc1ccc(NC(=O)CN(C)C(=O)Cc2ccc(Cl)c(Cl)c2)cc1,13.7%,-0.1,-2.4,.,13.8%,12.2,2.6
Nc1ncnc2[nH]c(=O)[nH]c12,11.3%,.,.,.,-0.4%,.,0.3
CCOC(=O)[C@@H]1[C@H]2COc3ccc(Br)cc3[C@@H]2N2C(=O)N(c3ccccc3)C(=O)[C@@]12C,8.6%,-0.6,-5.7,-4.4%,1.7%,-14.7,-4.9
C/C(CC(=O)NC(C)c1ccccc1)=N\NC(N)=S (stereo not drawn),79.4µM*,0.4,-20.3,.,-0.4%,-8.6,3.8
CC(=O)NNC(=S)Nc1cc(S(=O)(=O)N(C)C)ccc1C,2.1%,-0.2,-0.7,1.2%,-2.5%,-9.3,-2.4
NC(=O)C(CC(=O)O)NC(=O)[C@@H]1CCOc2c(I)cc([N+](=O)[O-])cc2C(=O)N[C@@H](CCC(=O)O)C(=O)N[C@@H](CO)C(=O)N1 (stereo partly drawn),30.8%,-0.6,23.4,1.6%,-0.2%,-4.2,-1.5
CCN(CC)c1ccc([N+](=O)[O-])cc1C(=O)N1CCOCC1,-2.1%,-0.3,24.3,.,1.3%,-4.7,4.4
Cc1nc2ccccc2n1CC(=O)OCC(=O)N1CCC(C)CC1,.,-0.1,13.5,-0.1%,-0.8%,.,.
CCOCCCN1C(=O)CN(C2CCCCC2)C(=O)C1c1ccc(OCC)c(OC)c1 (stereo not drawn),8.5%,-0.1,-3.4,-0.5%,-1.7%[38.3 µM],-5.5,2.9
COc1cccc(CN2CCc3[nH]c(=S)[nH]c(=O)c3C2)c1,-27.5%,.,.,-0.5%,-0.4%,2.4,-11.1
O=C(c1ccccc1F)N1CCN(c2ccc([N+](=O)[O-])c(NCC3CCCO3)c2)CC1 (stereo not drawn),13.3%,1.9,-10.9,-0.1%,-0.2%,-0.1,-7.1

# No enrichment for hits; any-hit rate near 4.4%.
